D2 agonist: activates the human D2 dopamine receptor. P14416. DiscoveRx PathHunter D2 beta-arrestin, luminescence, 90 min; 100% = 57 uM dopamine signal. activation, % (concentration not given with the values). 0.084% of 360,000 active; in the data active = activation above about 40%; inconclusive = about 15% to 40%; inactive = below about 15%; note: compound concentration not given in the record; the text of the record calls up to 30% inactive
Target sequence (P14416 whole entry, looked up): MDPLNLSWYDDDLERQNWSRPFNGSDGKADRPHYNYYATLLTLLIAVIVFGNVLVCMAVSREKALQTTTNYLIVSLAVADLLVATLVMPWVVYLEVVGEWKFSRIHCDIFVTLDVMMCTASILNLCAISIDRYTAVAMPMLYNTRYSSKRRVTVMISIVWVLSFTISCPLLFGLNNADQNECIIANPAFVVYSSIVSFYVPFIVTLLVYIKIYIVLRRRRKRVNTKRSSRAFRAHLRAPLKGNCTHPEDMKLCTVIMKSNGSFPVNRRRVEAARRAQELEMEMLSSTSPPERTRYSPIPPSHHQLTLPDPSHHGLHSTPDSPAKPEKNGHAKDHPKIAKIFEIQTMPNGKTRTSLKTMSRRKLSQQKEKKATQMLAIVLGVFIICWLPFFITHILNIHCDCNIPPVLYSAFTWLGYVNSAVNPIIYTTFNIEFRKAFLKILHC
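DiscoveRx PathHunter D2 beta-arrestin cells (2,100/well) attached overnight, then compound-stimulated 90 min at 37 C in HBSS/10 mM HEPES/0.1% Tween-20 buffer; beta-galactosidase complementation read by luminescence after 1 h at ambient temperature. Dopamine 57 uM final (EC100) as control.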
TRPML1 agonist: activates the human TRPML1 channel; AID 624414; activation, % (no concentration beside the values); Q9GZU1; TRPML1-expressing cells, Ca2+ dye fluorescence, FDSS; host cell line not named in the record; reference of the full effect not given here; 0.12% of 410,000 active; in the data active = activation above about 50%; inconclusive = about 30% to 50%; inactive = below about 30%; note: 0% is about no effect; the text of the record puts the active cut at 80%
Target sequence (Q9GZU1 whole entry, looked up): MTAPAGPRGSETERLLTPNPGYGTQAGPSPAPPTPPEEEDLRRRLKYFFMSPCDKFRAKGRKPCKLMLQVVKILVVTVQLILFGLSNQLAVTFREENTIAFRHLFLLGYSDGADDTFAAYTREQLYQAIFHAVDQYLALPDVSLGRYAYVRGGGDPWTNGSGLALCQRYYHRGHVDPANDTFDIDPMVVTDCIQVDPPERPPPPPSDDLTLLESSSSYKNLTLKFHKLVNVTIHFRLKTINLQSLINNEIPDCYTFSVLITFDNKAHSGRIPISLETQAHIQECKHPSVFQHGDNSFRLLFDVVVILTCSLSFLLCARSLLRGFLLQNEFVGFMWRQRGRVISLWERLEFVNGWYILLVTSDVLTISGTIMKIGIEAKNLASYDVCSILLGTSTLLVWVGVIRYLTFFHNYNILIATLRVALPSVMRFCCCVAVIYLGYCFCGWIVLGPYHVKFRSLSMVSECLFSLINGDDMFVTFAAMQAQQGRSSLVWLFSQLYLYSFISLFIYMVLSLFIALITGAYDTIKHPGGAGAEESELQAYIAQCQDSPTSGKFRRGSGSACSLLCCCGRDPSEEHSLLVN
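Kinetic FDSS Ca2+ read in Tet-induced TRPML1-DL cells (ABD Ca8 dye plus quencher, 45-90 min RT loading): baseline, then compound, then 110 s agonist window; EC80 agonist 54-4 at 4uM final added afterwards for a 110 s antagonist window.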
D2 potentiator: potentiates the human D2 dopamine receptor allosterically | P14416 | DiscoveRx D2 beta-arrestin cells, luminescence, 90 min; 100% = 57 uM dopamine signal | potentiation, % (test concentration not listed) | 0.23% of 360,000 active; active = potentiation of 50% or more; inconclusive = 30% to 50%; inactive = 30% or less;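 note: compound concentration not given in the record; tested on top of an EC20 dose of dopamine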
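PathHunter beta-arrestin assay in DiscoveRx D2 cells. Compounds were added with an EC20 of dopamine (50 nM final) for 90 min at 37 deg C. Luminescence was read 1 h after detection reagent, with 57 uM dopamine as the EC100 control.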
PINK1 expr mod: modulators of PINK1 expression; PINK1 immunofluorescence, high-content cytometry, 24 h; Potency, µM (titrated, usually from 76.6 µM), for inactives: at the top dose activation (PINK1 increase), hits mostly activators; 0.2% of 410,000 active; active = well fitted activation curve with a large enough effect; inconclusive = small, poorly fitted or top-dose-only effect; inactive = flat fitted curve, though single readings scatter; cell line not stated here;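 note: potency is the fitted concentration of half-maximal effect; % of control where 0% means no effect; nearly all actives have a fitted effect of over 65% in size; a mitochondrial uncoupler was the plate control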
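A stable cell line was treated with compounds at 5 concentrations for 24 hours, with CCCP as control. PINK1 levels and mitochondrial localization were measured by immunofluorescence with mitochondrial, cell and nuclear markers after fixation, read by laser-scanning cytometry.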
CtBP-E1A inh: inhibitors of CtBP/E1A interaction. AlphaScreen GST-E1A/His-CtBP binding, 1536-well; active compounds read low; control for the full effect not named in the record. 0.49% of 340,000 active. activity change, % (concentration not given with the values); in the data active means activity change below about -65%; inconclusive means about -30% to -65%; inactive means above about -30%; note: % is set by controls: 0 for no effect and ±100 for the full control effect
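Steps: dispense buffer (Tris pH 8.0, NaCl 300 mM, TCEP 1 mM, BSA, Tween 20); add 5X protein mix (GST-E1A, His-CtBP, 125 nM each); pin 23 nL compound; 2 h at 37 °C, dark; add 5X beads (50 ug/mL); 1 h; read.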
Six1-Eya2 inh: inhibitors of human Six1/Eya2 interaction | Q15475+O00167 | AlphaScreen GST-Six1/His-Eya2 binding, biochemical; active compounds read low; control for the full effect not named in the record | activity change, % (test concentration not listed) | 0.56% of 360,000 active | AID 651725; in the data active = activity change below about -65%; inconclusive = about -30% to -65%; inactive = above about -30%; note: % is set by controls: 0 for no effect and ±100 for the full control effect
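Six1/Eya2 binding was read as AlphaScreen signal after compounds were pinned into GST-Six1 plus His-tagged Eya2 (5X stock 250/500 nM) in pH 8.0 Tris/NaCl/TCEP buffer, beads added, then incubated 1 h, 37 C, dark.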
* = called active by the depositor; & = joins results of further samples; [ ] = another dose, or the depositor's remark. Compounds were not picked by outcome; about 1.3% have a hit in one of these screens.

CCOC(=O)c1c(-c2ccccc2Cl)cn2ccccc12 was read as D2 agonist -0.4, TRPML1 agonist 0.3, D2 potentiator -8, PINK1 expr mod 7.8%, CtBP-E1A inh 14 and Six1-Eya2 inh 6.
For COc1ccc(Cl)cc1NC(=O)C/C(C)=N/NC(=O)CCc1ccccc1 the results were D2 agonist -3.3, TRPML1 agonist 0.5, D2 potentiator -9, PINK1 expr mod 0.6%, CtBP-E1A inh 24 and Six1-Eya2 inh -11.
CCOc1ccc(-c2cc(C(=O)NC3CCCCC3)[nH]n2)c(C)c1 was read as D2 agonist -7.0, TRPML1 agonist -1.0, D2 potentiator -6, PINK1 expr mod 9.1%, CtBP-E1A inh 4 and Six1-Eya2 inh 6.
Cc1cc(C)cc(NC(=O)C2(c3ccccc3)CC2(Cl)Cl)c1 (stereo unspecified) was read as D2 agonist 1.3, TRPML1 agonist 7.7, D2 potentiator 11, PINK1 expr mod inconclusive, CtBP-E1A inh 6 and Six1-Eya2 inh 14.
Cc1ccc(S(=O)(=O)CC(N)=O)cc1 was read as D2 agonist -1.2, TRPML1 agonist 0.4, D2 potentiator 1, PINK1 expr mod 0.4%[38.3 µM], CtBP-E1A inh 2 and Six1-Eya2 inh 5.
`N#Cc1ccccc1N1CCN(C(=O)c2ccc(NC(=O)c3ccc(Br)o3)cc2)CC1` gave D2 agonist 2.5, TRPML1 agonist 0.7, D2 potentiator -3, PINK1 expr mod 0.3%, CtBP-E1A inh 1 and Six1-Eya2 inh -5.
Screening Clc1ccc(CSc2cnnc3ccccc23)cc1Cl returned D2 agonist 1.1, TRPML1 agonist -0.8, D2 potentiator -3, PINK1 expr mod 1.6%, CtBP-E1A inh 8 and Six1-Eya2 inh -1.
O=C(c1ccccc1)c1ccc(OC(=O)C2CCCCC2)cc1 was read as D2 agonist -3.2, TRPML1 agonist 0.8, D2 potentiator -3, PINK1 expr mod 2.2%, CtBP-E1A inh 13 and Six1-Eya2 inh 6.
Screening Cc1noc(C)c1C(=O)Nc1ccc(S(=O)(=O)N2CCCCC2)cc1 returned D2 agonist -3.7, TRPML1 agonist -0.2, D2 potentiator 5, PINK1 expr mod 2.1%, CtBP-E1A inh 1 and Six1-Eya2 inh 0.
`COC(=O)c1cc2occc2n1Cc1cccc(C)c1` gave D2 agonist -5.9, TRPML1 agonist -0.1&2.2, D2 potentiator -5, PINK1 expr mod 6.3%&-0.7%, CtBP-E1A inh 3 and Six1-Eya2 inh 2.
COc1ccccc1CNC(=O)C1CCN(C(=O)[C@@H]2Cc3ccccc3CN2)CC1 was read as D2 agonist -2.5, TRPML1 agonist 0.1, D2 potentiator -12, PINK1 expr mod -0.4%, CtBP-E1A inh -17 and Six1-Eya2 inh -5.
Screening COc1ccc(C=Cc2ccc3ccccc3n2)c(OC)c1 returned D2 agonist -3.0, TRPML1 agonist 0.4, D2 potentiator -13, PINK1 expr mod 8.7%, CtBP-E1A inh 2 and Six1-Eya2 inh 48.
Screening O=S(=O)(Nc1nc2ccccc2[nH]1)c1ccccc1 returned D2 agonist -0.9, TRPML1 agonist -1.3, D2 potentiator -3, PINK1 expr mod 2.1%, CtBP-E1A inh -3 and Six1-Eya2 inh 5.
For O=C(CSc1nccn1-c1cccc(F)c1)NC1CCCC1 the results were D2 agonist -3.6, TRPML1 agonist 1.1, D2 potentiator -6, PINK1 expr mod 1.6%, CtBP-E1A inh -3 and Six1-Eya2 inh 7.
For Fc1ccc(CNc2ncnc3cc(Cl)ccc23)cc1 the results were D2 agonist 7.2, TRPML1 agonist 0.3, D2 potentiator -9, PINK1 expr mod inconclusive, CtBP-E1A inh 0 and Six1-Eya2 inh -5.
For Cc1cc2ccccn2c1C(=O)c1ccc(S(=O)(=O)N(C)C)cc1 the results were D2 agonist -1.8, TRPML1 agonist -0.4, D2 potentiator -1, PINK1 expr mod 1.1%, CtBP-E1A inh -21 and Six1-Eya2 inh -15.
For Cc1ccc(S(=O)(=O)N2CCCCC2CCNC(=O)C(=O)NCc2ccncc2)cc1 (stereo unspecified) the results were D2 agonist -5.4, TRPML1 agonist -0.3, D2 potentiator -16, PINK1 expr mod -1.2%, CtBP-E1A inh 6 and Six1-Eya2 inh 2.
Screening Cc1sc2nc(CSC(C)C(=O)N3CCOCC3)[nH]c(=O)c2c1C (stereo unspecified) returned D2 agonist -2.3, TRPML1 agonist -0.4, D2 potentiator -6, PINK1 expr mod 1.2%, CtBP-E1A inh 2 and Six1-Eya2 inh -3.
Screening COc1ccc(S(=O)(=O)N2CCCCCC2)cc1C(=O)N1CCN(c2ccccc2C)CC1 returned D2 agonist 7.1, TRPML1 agonist 3.8, D2 potentiator -2, PINK1 expr mod 1.8%, CtBP-E1A inh -2 and Six1-Eya2 inh -5.
O=C(O)COc1ccc(Br)cc1CP(=O)(c1ccccc1)c1ccccc1 was read as D2 agonist 1.9, TRPML1 agonist 0.1, D2 potentiator -1, PINK1 expr mod 5.3%, CtBP-E1A inh 24 and Six1-Eya2 inh 0.
COc1ccccc1C/C(N)=N/OC(=O)COc1ccc(C)cc1 was read as D2 agonist -0.3, TRPML1 agonist 2.1, D2 potentiator -7, PINK1 expr mod 0.7%, CtBP-E1A inh -1 and Six1-Eya2 inh 47.
Screening COC(=O)c1ccccc1S(=O)(=O)N1CCC(C(=O)N2CCC2)CC1 returned D2 agonist 5.3, TRPML1 agonist -0.5, D2 potentiator -2, PINK1 expr mod 0.4%, CtBP-E1A inh 0 and Six1-Eya2 inh 3.
Screening COc1ccc(CCNC(=O)CCCNC(=O)Cn2cnc3sc(C)c(C)c3c2=O)cc1OC returned D2 agonist -1.0, TRPML1 agonist -0.5, D2 potentiator -6, PINK1 expr mod -0.1%, CtBP-E1A inh -1 and Six1-Eya2 inh -3.
Screening Cc1ccc(S(=O)(=O)N2C[C@H]3[C@H]4C(=O)N(C)C(=O)[C@H]4CC(=O)[C@H]3[C@@H]2c2ccccc2F)cc1 returned D2 agonist -3.8, TRPML1 agonist -0.5, D2 potentiator -4, PINK1 expr mod 1.3%, CtBP-E1A inh 1 and Six1-Eya2 inh -4.
Screening COc1ccc(S(=O)(=O)N2CCCCC2)cc1NC(=O)CCc1cc(OC)c(OC)c(OC)c1 returned D2 agonist 6.4, TRPML1 agonist -0.6, D2 potentiator 1, PINK1 expr mod 0.9% and Six1-Eya2 inh -8.
Screening O=C(N/N=C/c1ccoc1)c1ccccc1O returned D2 agonist 1.4, TRPML1 agonist -0.5, D2 potentiator -1, PINK1 expr mod 0.5%, CtBP-E1A inh -1 and Six1-Eya2 inh -10.
Screening O=C1CNC(=S)N1C1CCCCCC1 returned D2 agonist -4.1, TRPML1 agonist 0.4, D2 potentiator -2, PINK1 expr mod -2.2%, CtBP-E1A inh 6 and Six1-Eya2 inh 0.
`Cc1ccc(NC2c3ncccc3C(=O)N2Cc2cccs2)cc1` (stereo unspecified) gave D2 agonist -0.3, TRPML1 agonist -0.6, D2 potentiator -6, PINK1 expr mod 11%, CtBP-E1A inh 4 and Six1-Eya2 inh -8.
`COc1cc(C(=O)Nc2cc(S(C)(=O)=O)ccc2Cl)ccc1OCC(=O)N1CCOCC1` gave D2 agonist -4.9, TRPML1 agonist -0.2, D2 potentiator -4, PINK1 expr mod -0.4%, CtBP-E1A inh -5 and Six1-Eya2 inh 4.
Screening CCC(=O)N1CCCC(C(=O)Nc2nc3ccccc3n2C)CC1 (stereo unspecified) returned D2 agonist -2.2, TRPML1 agonist -0.1, D2 potentiator -6, PINK1 expr mod -0.8%, CtBP-E1A inh -9 and Six1-Eya2 inh 6.
Screening Cc1ccc(N(CC(=O)NCc2ccco2)C(=O)CNS(=O)(=O)c2ccccc2)c(C)c1 returned D2 agonist -1.6, TRPML1 agonist 0.9, D2 potentiator -4, PINK1 expr mod -0.5%, CtBP-E1A inh -11 and Six1-Eya2 inh -28.
Screening Cc1ccc(C(=O)Nc2cccc(C(F)(F)F)c2)cc1NC(=O)c1nccnc1N returned D2 agonist -3.8&0.1, TRPML1 agonist 0.7&2.0, D2 potentiator 1&-4, PINK1 expr mod 10%&14%, CtBP-E1A inh -1 and Six1-Eya2 inh 1&-5.
For Cc1cccc(C)c1NC(=O)COc1ccc2c(C)c(Cc3ccccc3)c(=O)oc2c1C the results were D2 agonist -0.1, TRPML1 agonist 0.5, D2 potentiator -1, PINK1 expr mod 8.1%, CtBP-E1A inh -4 and Six1-Eya2 inh 0.
Cc1nn2c(=S)[nH]nc2[nH]c1=O was read as D2 agonist -4.5, TRPML1 agonist 0.7, D2 potentiator -26, PINK1 expr mod -1.6%, CtBP-E1A inh -22 and Six1-Eya2 inh -3.
CCC(Oc1cc(Cl)ccc1Cl)C(=O)NN1C(=O)C2C3CCC(C3=C(C)C)C2C1=O (stereo unspecified) was read as D2 agonist -1.3, TRPML1 agonist 1.5, D2 potentiator -21, PINK1 expr mod 4.0%, CtBP-E1A inh 4 and Six1-Eya2 inh 2.
For COc1ccc(Oc2c(Cl)cnn(-c3ccc(C)cc3)c2=O)cc1 the results were D2 agonist -1.3, TRPML1 agonist 1.2, D2 potentiator -9, PINK1 expr mod -4.7%, CtBP-E1A inh 6 and Six1-Eya2 inh -2.

3 neighbouring records out of the list so far:
For Cc1cccc(C)c1NC(=O)COc1ccc2c(C)c(Cc3ccccc3)c(=O)oc2c1C the results were D2 agonist -0.1, TRPML1 agonist 0.5, D2 potentiator -1, PINK1 expr mod 8.1%, CtBP-E1A inh -4 and Six1-Eya2 inh 0.
Cc1nn2c(=S)[nH]nc2[nH]c1=O was read as D2 agonist -4.5, TRPML1 agonist 0.7, D2 potentiator -26, PINK1 expr mod -1.6%, CtBP-E1A inh -22 and Six1-Eya2 inh -3.
CCC(Oc1cc(Cl)ccc1Cl)C(=O)NN1C(=O)C2C3CCC(C3=C(C)C)C2C1=O (stereo unspecified) was read as D2 agonist -1.3, TRPML1 agonist 1.5, D2 potentiator -21, PINK1 expr mod 4.0%, CtBP-E1A inh 4 and Six1-Eya2 inh 2.

Remaining list, next part.
Screening O=C(CCn1c(=S)oc2ccccc21)N1CCN(c2ccc(F)cc2)CC1 returned D2 agonist 1.2, TRPML1 agonist -0.2, D2 potentiator -3, PINK1 expr mod 1.7%, CtBP-E1A inh 9 and Six1-Eya2 inh -1.
For CCOCCCn1c(=S)[nH]c2cc(C(=O)N3CCC(C(N)=O)(N4CCCCC4)CC3)ccc2c1=O the results were D2 agonist -3.9, TRPML1 agonist 0.0, D2 potentiator -4, PINK1 expr mod 1.9%, CtBP-E1A inh -22 and Six1-Eya2 inh 11.
CCN1C(=O)[C@H]2[C@@H](c3ccc(-c4ccc5c(c4)OCO5)c(OC)c3)N[C@@](Cc3ccccc3)(C(=O)OC)[C@H]2C1=O was read as D2 agonist -0.3, TRPML1 agonist -0.3, D2 potentiator -4, PINK1 expr mod -0.8%, CtBP-E1A inh -20 and Six1-Eya2 inh -19.
Screening CCOC(=O)c1ccc(NC(=O)c2nc[nH]c2C(=O)NC2CCN(C(=O)OC(C)(C)C)CC2)cc1 returned D2 agonist -1.4, TRPML1 agonist 0.8, D2 potentiator -4, PINK1 expr mod 1.6% and Six1-Eya2 inh 10.
